Screening results: PubChem, several laboratories
RecA intein inh – inhibitors of M. tuberculosis RecA intein splicing; P9WHJ3; cell-free RecA intein splicing, fluorescence; inhibition, %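 (about 9 µM by stock and volumes)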; actives 0.75% (n = 290,000); in the data active = inhibition above about 30%; inconclusive = no clear call, values can overlap the other calls;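 note: 0% = vehicle wells and 100% = reference inhibitor control wells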
Target sequence (P9WHJ3 whole entry, looked up): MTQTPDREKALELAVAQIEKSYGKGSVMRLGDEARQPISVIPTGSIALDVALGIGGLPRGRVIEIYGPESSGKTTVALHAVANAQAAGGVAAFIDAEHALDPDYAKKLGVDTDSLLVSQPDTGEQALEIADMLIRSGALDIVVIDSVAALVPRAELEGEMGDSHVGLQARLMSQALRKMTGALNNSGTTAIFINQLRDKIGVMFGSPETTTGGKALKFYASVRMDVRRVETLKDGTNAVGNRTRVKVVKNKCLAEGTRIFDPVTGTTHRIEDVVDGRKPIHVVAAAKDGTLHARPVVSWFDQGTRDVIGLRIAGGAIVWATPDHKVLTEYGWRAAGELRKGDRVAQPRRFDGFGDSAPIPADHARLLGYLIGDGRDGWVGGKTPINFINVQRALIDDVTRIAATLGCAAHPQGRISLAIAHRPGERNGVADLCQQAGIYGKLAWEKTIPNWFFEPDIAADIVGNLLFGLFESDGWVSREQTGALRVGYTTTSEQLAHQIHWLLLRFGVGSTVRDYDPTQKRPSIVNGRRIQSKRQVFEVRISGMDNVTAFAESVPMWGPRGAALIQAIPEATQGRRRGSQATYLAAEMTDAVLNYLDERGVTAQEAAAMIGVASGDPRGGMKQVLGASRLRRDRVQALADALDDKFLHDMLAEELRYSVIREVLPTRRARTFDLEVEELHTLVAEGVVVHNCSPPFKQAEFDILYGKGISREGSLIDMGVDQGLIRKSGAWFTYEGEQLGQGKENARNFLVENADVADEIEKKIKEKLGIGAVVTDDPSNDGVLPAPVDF
Mtb bLac sens – beta-lactam sensitization of Mtb H37Rv; M. tuberculosis H37Rv growth with meropenem, percent inhibition; hits of this screen are not shown here; inhibition, % at 25 µM; actives 0.27% (n = 330,000);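 active = about 74% or more and at least 40 points above the plate without the antibiotic, then above 30% in a dose series; inconclusive = first-round hits that could not be retested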;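 note: growth measured after seven days incubation then overnight dye step; 0% = bacteria only wells and 100% = bacteria with antibiotic; twin plates without the antibiotic show which effects depend on it; some results filed as inactive read as strong as hits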
Arbovirus anti – antivirals against arbovirus infection | inhibition, % at 10 µM | arbovirus infection cell-based antiviral screen | actives 0.37% (n = 200,000) | AID 1251;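 active = inhibition from about 30%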;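 note: bluetongue infection of BSR cells; cell survival read as ATP light after 72 h; 0% = infected wells without compound and 100% = uninfected wells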
Mtb growth – M. tuberculosis H37Rv growth inhibitors, H37Rv strain (AID 1626) | M. tuberculosis H37Rv growth inhibition; higher % means a stronger effect | inhibition, % at 10 µM, or IC50 in µM where a hit was titrated | actives 0.95% (n = 220,000);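 active = confirmed in a dose series; inconclusive = inhibition above 80% but not taken into the dose series; inactive = below 80% or under 30% at every dose of the series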;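 note: bacteria incubated seven days before Alamar blue readout; 0% = bacteria only wells and 100% = bacteria with antibiotic wells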
YopH PTP inh – blocks Yersinia enterocolitica YopH tyrosine phosphatase. fluorescence Ex485/Em525. inhibition, %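 (about 10 µM by stock and volumes)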. actives 0.16% (n = 140,000);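 active = inhibition of 50% or more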;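 note: controls were vehicle for no effect and minimum signal wells for full effect; inactives centre near -20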
Arbovirus anti repeat – recorded beside Arbovirus anti, whose call it bears; inhibition, %; measured here: 10K subset replicate screen; many hits read low in the repeat;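 first of two repeat runs on a subset; 0% = infected and 100% = uninfected wells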
Numbers without * were called inactive; ? = inconclusive; . = not tested or not shown.

SMILES | RecA intein inh | Mtb bLac sens | Arbovirus anti | Mtb growth | YopH PTP inh | others
COc1ccc(OC)c(S(=O)(=O)N(C)CC(=O)Nc2ccc3c(c2)OCO3)c1 | 2.3 | -3.3 | -4.7 | -2.5% | -24.6
O=C(O)CNc1ccccc1C(=O)O | 1.4 | 3.2 | . | -8.1% | .
C=CCn1c(O)c(/C=C/C=Nc2ccccc2)c(=O)[nH]c1=O | 1.4 | 2.1 | -0.4 | 7.6% | -12.4
CC(C)Sc1nc2ncnc(N)c2[nH]1 | 0.0 | -9.2 | 15.7 | -0.3% | .
CCOc1ccccc1NC(=S)N1CCN(c2cccc(OC)c2)CC1 | 2.0 | 4.8 | . | . | .
Cc1cc(SCC(=O)N/N=C/c2ccc(O)c(O)c2)nc2ccccc12 | -3.0 | -5.3 | . | . | .
O=c1ccc(-c2ccc(S(=O)(=O)Nc3cccc([N+](=O)[O-])c3)s2)n[nH]1 | -1.3 | -4.2 | . | . | .
CCCCN(C(=O)c1cccc(-n2cccc2)c1)c1c(N)n(CCCC)c(=O)[nH]c1=O | -0.1 | -5.8 | . | . | .
Cc1cccc(OCC(=O)NC(=S)Nc2ccc(S(=O)(=O)NC3CCCCC3)cc2)c1 | 0.1 | 33.6 | -4.7 | -6.7% | -3.6
CCOc1ccc(N2C(=O)CN(c3cccc4ccccc34)C2=S)cc1 | -2.6 | 6.8 | 2.4 | 5.7% | .
Cc1[nH]c(N=Nc2ccccc2)nc1N=Nc1ccccc1 | 1.5 | 93.0 | . | ? | .
Cc1ccc(CSCc2ccc(C(=O)NCCC(C)C)o2)cc1 | 3.0 | 0.4 | . | . | .
CNC(=O)c1cc(C(=O)c2ccc(C(F)(F)F)cc2F)c[nH]1 | 0.3 | 3.8 | 22.3 | 2.8% | .
CCN(CC)C(=S)NC(=O)C12CC3CC(CC(C3)C1)C2 | -3.8 | -0.3 | 5.9 | -3.4% | .
Cc1cnc(C(=O)OCC(=O)Nc2ccc(C)c(S(=O)(=O)N(C)C)c2)cn1 | -2.4 | -9.8 | . | -4.3% | .
CCN(c1ccc(NC(=O)COC(=O)c2ccc(C)s2)cc1)C(C)C | -1.5 | 68.6 | 1.6 | 30.1% | .
CC(C)n1cc(C(=O)N(CC(=O)NC(C)(C)C)Cc2ccccc2)cn1 | -1.9 | -5.4 | 0.1 | -6.1% | -7.5
CCOC(=O)CCCc1ccc(/C(C)=N/NC(N)=S)cc1 | -0.9 | 95.4 | . | ? | .
Cc1cc(C(=O)NC2CCCCCCC2)ccc1[N+](=O)[O-] | -1.5 | 99.9 | . | . | .
CC(C)CC(=O)N1CCN(Cc2ccc(Cl)cc2)CC1 | -0.9 | -9.6 | . | . | .
Cc1cccc2c(CC(=O)O)noc12 | -3.6 | 3.6 | 5.4 | -13.6% | -15.2
O=C(COc1ccc(Cl)cc1)Nc1ccc(Cl)cn1 | 0.9 | 97.8 | -7.2 | ? | 10.7
CCc1nnc(NS(=O)(=O)c2ccc(NC(=O)c3cccc(OC(F)(F)C(F)F)c3)cc2)s1 | 4.0 | 39.2 | . | . | .
COc1ccccc1CCc1nnc(CCC(=O)NC(C)Cc2cccs2)o1 (centres undefined) | 0.2 | -1.8 | 7.8 | -8.2% | .
COc1cc2c(c(OC)c1OC)-c1c(cc3c(c1O)OCO3)C[C@@H](C)[C@@H](C)C2 | 11.7 | 11.4 | . | -1.1% | .
Cc1cc(C)c(NC(=O)c2ccc(CN3CCc4ccccc4C3)cc2)c(C)c1 | -2.1 | 99.5 | -8.8 | -0.4% | -26.5
CC(NC(=S)NC(=O)c1ccccc1)c1ccccc1 (centres undefined) | 8.0 | -5.0 | . | . | .
CCCCCCn1c(SCCCC)nc2c1c(=O)[nH]c(=O)n2C | . | -3.8 | -23.0 | 13.1% | 2.7
C[C@]12CCC(O)CC1=CCC1C2CC[C@]2(C)/C(=N\NC(N)=S)CCC12 (some centres undefined) | 0.9 | -0.8 | . | . | .
Cc1nn2cnnc2c(C)c1Cc1ccc(Cl)cc1 | -2.3 | 9.3 | . | . | .
Cc1cc(C)c(OCCN2CCOCC2)c(Cl)c1 | -2.9 | -4.2 | . | . | .
COc1cc(OC)cc(C(=O)NCCCN2CCN(CCCNC(=O)c3cc(OC)cc(OC)c3)CC2)c1 | -9.5 | -7.4 | 3.7 | 4.5% | -14.6
CCOc1cc(C2C3=C(CC(C)(C)CC3=O)Nc3n[nH]c(C)c32)ccc1O (centres undefined) | -4.8 | -13.4 | 12.8 | 3.4% | .
c1coc(CNCCc2c[nH]c3ccccc23)c1 | 0.8 | 3.0 | . | . | .
COc1ccc(-c2cc(-c3ccc(O)cc3)nc(N)c2C#N)cc1OC | 1.9 | 11.9 | -13.1 | -4.4% | .
CCN(CC)P(=O)(Nc1ccc(SC(F)F)cc1)c1ccc(N(C)C)cc1NC(=O)c1ccco1 (centres undefined) | 18.4 | 48.3 | -12.3 | 8.3% | .
CC(C)CNC(=O)c1ccccc1Oc1ccccc1 | 2.2 | 67.6 | -7.6 | -0.2% | -38.5
CN(C)CC(C)(C)NS(=O)(=O)c1ccc(Cl)cc1 | 1.7 | 2.6 | 2.5 | -9.3% | -38.6
COc1ccc(C(C)(C)C)cc1NC(=O)CNc1cccc2ccccc12 | 0.7 | -3.0 | 15.4 | 7.8% | -12.8
CCCCCCCNC(=O)C1(CC2CC(c3ccc(Cl)cc3)=NO2)CCNCC1 (centres undefined) | 0.5 | 99.7 | . | . | .
C=CCNC(=S)/C(=C(\[O-])c1ccc(Cl)cc1)[n+]1ccccc1 | 0.3 | -12.5 | . | 13.3% | .
CCOc1ccccc1/C=C(/NC(=O)c1ccccc1)C(=O)NC(C)c1ccccc1 (centres undefined) | 2.2 | -4.4 | -7.7 | 5.6% | -25.8
O=C(CSc1ncn[nH]1)N1CCN(S(=O)(=O)c2ccc(Cl)cc2)CC1 | -2.0 | -1.2 | 5.8 | -2.9% | -11.8
Fc1cccc(Cc2noc(CN3CCOCC3)n2)c1 | 2.2 | -3.3 | 6.2 | 6.0% | .
CSc1nc(C)cc(SCC(=O)N/N=C/c2ccccc2)n1 | -0.4 | 2.0 | 0.7 | -3.7% | -25.3
C=CCNc1nc(-c2ccc(Cl)cc2)cs1 | 7.0 | -7.1 | -0.7 | 28.1% | -163.2
COC(=O)Cc1ccc(NC(=S)N2CCCC(CO)C2)cc1 (centres undefined) | 3.1 | -0.1 | 3.7 | ? | -13.7
CC(NC(=O)CN(C)Cc1nc2ccccc2c(=O)[nH]1)c1ccccc1 (centres undefined) | -2.5 | 2.7 | 3.6 | -1.0% | -17.2
COc1ccccc1C(=O)NNC(=O)C(=O)NC1CCCCC1 | -1.3 | 91.4 | . | . | .
COCc1cc(C)nc(SCC(=O)Nc2cc(C(F)(F)F)ccc2N2CCOCC2)c1C#N | -3.3 | 12.6 | . | . | .
O=C(C(Cc1ccccc1)n1cccc1)N1CCCCC1 (centres undefined) | -0.3 | 1.5 | 1.7 | -5.0% | -30.0
Cc1ccc(/C(N)=N/OC(=O)Oc2ccccc2)cc1 | 1.5 | -9.5 | 13.9 | -6.8% | -17.0
Nc1nc2ccc(S(=O)(=O)N3CCCCC3)cc2s1 | -2.9 | 4.1 | -15.0 | 7.0% | -2.1
N#Cc1c(C(F)(F)F)cc(-c2cccs2)nc1N1CCCCC1 | . | 0.2 | . | 0.6% | .
Cc1ccc(CNC(=O)CCCCn2c(=O)[nH]c3ccsc3c2=O)cc1 | 5.6 | -5.4 | -1.5 | 4.2% | .
CCOC(=O)C(NC(=O)CC(C)C)(Nc1sc2c(c1C(N)=O)CCCC2)C(F)(F)F (centres undefined) | -1.3 | 6.0 | 5.1 | -0.6% | -16.7
CCCCSc1nc(CCC)cc(=O)[nH]1 | -2.2 | -0.2 | 11.1 | 1.0% | -22.4 | Arbovirus anti repeat=2.9
Cc1nc2ncnn2c(C)c1CCC(=O)N1CCc2ccccc21 | 1.2 | 68.6 | 14.5 | -5.4% | -8.1
COc1cccc(C2C(C(=O)OC(C)C)=C(C)N=c3s/c(=C\c4ccc(C(=O)O)cc4)c(=O)n32)c1 (centres undefined) | -0.9 | -1.8 | . | . | .
CC1CCN(c2ccc([N+](=O)[O-])cc2C(=O)NCC2CCCO2)CC1 (centres undefined) | 2.0 | -11.9 | . | . | .
(more compounds)
SMILES | RecA intein inh | Mtb bLac sens | Arbovirus anti | Mtb growth | YopH PTP inh | others
CC(C)(CNC(=O)Cc1ccc(Br)cc1)N1CCOCC1 | 1.5 | 6.0 | . | . | .
COCCCNC(=O)Cc1coc2ccc3ccccc3c12 | 3.0 | -8.9 | 5.2 | -0.2% | .
CC(=O)OC[C@]12CCC(C)=C[C@H]1O[C@@H]1[C@H](O)[C@@H](OC(C)=O)[C@@]2(C)[C@]12CO2 | . | -5.2 | . | -5.1% | .
Cc1ccc(S(=O)(=O)CC(O)COc2ccc(F)cc2Cl)cc1 (centres undefined) | 11.1 | 0.4 | 0.8 | 7.5% | .
Cc1cccc2sc(N(CCCN(C)C)C(=O)CN3C(=O)c4ccccc4C3=O)nc12 | 3.6 | 6.1 | -1.5 | 0.0% | .
O=C(O)CSC(C(=O)Nc1ccc(Br)cc1)c1ccc(Cl)cc1 (centres undefined) | 0.3 | -1.9 | -1.1 | -1.4% | .
COc1ccc(C(=O)c2sc3nc(-c4ccc(OC)cc4)ccc3c2N)cc1 | -5.6 | 8.7 | 1.6 | -5.3% | -1.6
CN(CC(=O)Nc1ccc(Cl)cc1)S(=O)(=O)c1ccc2c(c1)n(C)c(=O)c(=O)n2C | 1.6 | 4.2 | . | . | .
c1ccc(CCc2nc(-c3cccnc3)no2)cc1 | -1.0 | 7.7 | -0.8 | 6.4% | 10.7
COc1ccc2nc(NC(=O)c3cc(S(=O)(=O)N4CCOCC4)ccc3C)sc2c1 | -3.9 | 39.6 | -3.3 | 14.6% | -8.3
O=C(NC(=S)Nc1ccccc1N1CCOCC1)c1ccco1 | 1.9 | -0.2 | -1.1 | 13.5% | -19.7
CCCCc1cc(=O)oc2cc(OCC(=O)NC3CCN(Cc4ccccc4)CC3)ccc12 | -2.0 | 53.7 | . | . | .
CCOC(=O)N1CCN(C(=O)CSCC(=O)N=c2sc3ccccc3n2C)CC1 | -0.5 | -4.2 | 7.1 | -1.1% | 3.3
CCCCOC(=O)C1C2C=C[C@]3(CN(C(C)c4ccc(OC)cc4)C(=O)[C@H]13)O2 (some centres undefined) | 0.2 | -3.1 | 5.5 | 4.1% | -64.7
CCCC1CC(C#N)N(N(C)C)C1=C(C#N)C#N (centres undefined) | 1.3 | -12.8 | . | -0.7% | .
CC1=C(C(=O)Nc2ccccn2)C(c2cn(C)nc2C)C2=C(CCCC2=O)N1 (centres undefined) | . | 1.9 | 2.3 | -0.1% | .

11 structures out of the list, ordered by molecular weight, low to high.
SMILES | RecA intein inh | Mtb bLac sens | Arbovirus anti | Mtb growth | YopH PTP inh | others
CCCC1CC(C#N)N(N(C)C)C1=C(C#N)C#N (centres undefined) | 1.3 | -12.8 | . | -0.7% | .
c1ccc(CCc2nc(-c3cccnc3)no2)cc1 | -1.0 | 7.7 | -0.8 | 6.4% | 10.7
COCCCNC(=O)Cc1coc2ccc3ccccc3c12 | 3.0 | -8.9 | 5.2 | -0.2% | .
O=C(NC(=S)Nc1ccccc1N1CCOCC1)c1ccco1 | 1.9 | -0.2 | -1.1 | 13.5% | -19.7
Cc1ccc(S(=O)(=O)CC(O)COc2ccc(F)cc2Cl)cc1 (centres undefined) | 11.1 | 0.4 | 0.8 | 7.5% | .
CC1=C(C(=O)Nc2ccccn2)C(c2cn(C)nc2C)C2=C(CCCC2=O)N1 (centres undefined) | . | 1.9 | 2.3 | -0.1% | .
O=C(O)CSC(C(=O)Nc1ccc(Br)cc1)c1ccc(Cl)cc1 (centres undefined) | 0.3 | -1.9 | -1.1 | -1.4% | .
Cc1cccc2sc(N(CCCN(C)C)C(=O)CN3C(=O)c4ccccc4C3=O)nc12 | 3.6 | 6.1 | -1.5 | 0.0% | .
COc1ccc2nc(NC(=O)c3cc(S(=O)(=O)N4CCOCC4)ccc3C)sc2c1 | -3.9 | 39.6 | -3.3 | 14.6% | -8.3
CCCCc1cc(=O)oc2cc(OCC(=O)NC3CCN(Cc4ccccc4)CC3)ccc12 | -2.0 | 53.7 | . | . | .
CN(CC(=O)Nc1ccc(Cl)cc1)S(=O)(=O)c1ccc2c(c1)n(C)c(=O)c(=O)n2C | 1.6 | 4.2 | . | . | .

Only part of the results is shown; count on the stated rates, not on these rows.
